# Screening data as filed in PubChem BioAssay.
# VDR inhibitor: Inhibitors of the vitamin D receptor (VDR): qHTS; Vitamin D3 receptor (Homo sapiens), P11473; VDR-SRC2-3 peptide fluorescence polarization, 2 h; Potency, µM, for inactives: max response, negative = inhibition, actives largely listed as inhibitors; 0.93% of 400,000 active; AID 504847, 2011; active means well fitted inhibition curve with a large enough effect; inconclusive means small, poorly fitted or top-dose-only effect, or another doubt; inactive means no such curve, though single readings can be large or run the other way; further: series mostly up to about 120 µM
# Target sequence (P11473 whole entry, looked up): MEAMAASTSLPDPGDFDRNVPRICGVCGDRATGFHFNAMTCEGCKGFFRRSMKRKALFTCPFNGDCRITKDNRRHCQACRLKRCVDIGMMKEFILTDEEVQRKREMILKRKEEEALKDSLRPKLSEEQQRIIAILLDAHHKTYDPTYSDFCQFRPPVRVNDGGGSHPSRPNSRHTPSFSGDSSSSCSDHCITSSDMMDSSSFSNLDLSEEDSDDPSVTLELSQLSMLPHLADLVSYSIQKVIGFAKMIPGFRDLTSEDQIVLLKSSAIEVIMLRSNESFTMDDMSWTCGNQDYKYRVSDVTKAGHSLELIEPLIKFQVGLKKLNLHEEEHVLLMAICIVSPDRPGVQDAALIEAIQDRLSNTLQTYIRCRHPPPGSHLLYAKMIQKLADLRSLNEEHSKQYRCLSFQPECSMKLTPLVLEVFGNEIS
#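 The screen uses fluorescence polarization to detect compounds that interfere with recruitment of the SRC2-3 coactivator peptide to VDR; plates are read after 2 h at room temperature.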
# * hit, by the source's call; ? = inconclusive; & = joins results of further samples; [ ] = another dose, or the depositor's remark. On the % scale 0 is the no-effect control and ±100 the full control effect; potency means the concentration at half of the fitted maximal effect. A portion of the library, so the mix of outcomes need not match the whole.
SMILES,VDR inhibitor
Cc1ccc(S(=O)(=O)N2[C@@H](c3ccc(Cl)cc3)C(C(=O)O)=CC[C@H]2c2ccc3c(c2)OCO3)cc1,1%
Cc1ccccc1NC(=O)c1ccc2c(c1)N(C)CCS2,-18%
CC(Nc1nc(N2CCNCC2)nc2ccccc12)c1ccccc1 (centres undefined),9%
Nc1cc(N)nc(SCc2cc(=O)oc3cc4c(cc23)CCC4)n1,-19%
CN(C)S(=O)(=O)N1CCCC(C(=O)c2ccc(-c3ccccc3)cc2)C1 (centres undefined),-18%
CC(=O)c1cccc(NC(=O)C(OC(=O)c2ccccc2NS(=O)(=O)c2cccs2)c2ccccc2)c1 (centres undefined),-8%
O=C(Nc1ccccc1Cl)c1cccc(NC(=O)C2C3CC4OC(=O)C2C4C3)c1 (centres undefined),4%
Cc1ccc(C2CC(=O)n3nc(-c4cccc(C)c4)nc3S2)cc1 (centres undefined),7%
Cc1ccn2cc(CC(=O)O)nc2c1,0%
COc1ccc(S(=O)(=O)N(C)C2(C)CCS(=O)(=O)C2)cc1OC (centres undefined),-5%
Fc1ccc(CNCC2CCCO2)cc1 (centres undefined),-17%
C=CCC(=O)NC(C)c1cnn(-c2ccccc2C)c1C (centres undefined),0%
COc1ccc(CN(C)CC(=O)Nc2cccc(S(=O)(=O)N3CCCC3)c2)cc1F,-7%
O=C(C1CCCC1)N1CCCC(Nc2ccccc2)C1 (centres undefined),105%[activator]
CCC(C)[C@H](NC(=O)NCCCc1ccccc1)C(=O)OC (some centres undefined),5%
CC(=O)c1sc2nc(SCC(=O)NCCc3ccccc3)[nH]c(=O)c2c1C,0%
Cc1cc2nnc(SCC(=O)N3CCN(c4ccccc4)CC3)n2c(N)n1,10%
CN1C(=O)NC2C1N(S(C)(=O)=O)CCN2S(C)(=O)=O (centres undefined),5%
CCOc1cc(C2C(C(=O)c3ccc(C)cc3)=C(C(=O)OC)Nc3nnnn32)ccc1O (centres undefined),13%
CCCN(Cc1ccccc1)C(=S)Nc1ccc(SC(F)F)cc1,-4%

# Individual results from above.
# VDR inhibitor with Cc1cc2nnc(SCC(=O)N3CCN(c4ccccc4)CC3)n2c(N)n1 is entered as 10%
# VDR inhibitor with O=C(C1CCCC1)N1CCCC(Nc2ccccc2)C1 (centres undefined) is entered as 105%[activator]
# VDR inhibitor with CCOc1cc(C2C(C(=O)c3ccc(C)cc3)=C(C(=O)OC)Nc3nnnn32)ccc1O (centres undefined) is entered as 13%
# VDR inhibitor with CN1C(=O)NC2C1N(S(C)(=O)=O)CCN2S(C)(=O)=O (centres undefined) is entered as 5%
# VDR inhibitor with CCCN(Cc1ccccc1)C(=S)Nc1ccc(SC(F)F)cc1 is entered as -4%
# VDR inhibitor with C=CCC(=O)NC(C)c1cnn(-c2ccccc2C)c1C (centres undefined) is entered as 0%

# Following part
SMILES,VDR inhibitor
COc1ccc([N+](=O)[O-])cc1NC(=O)COC(=O)C1CC1,-7%
Cc1ccc(NC(=S)N(CCCN2CCOCC2)Cc2ccco2)cc1C,-10%
COc1ccc(-c2nnc(SCC(=O)N3c4ccccc4Sc4ccccc43)o2)cc1,3%
Cc1ncc(CN2CCN(Cc3ccccc3)C(CCO)C2)s1 (centres undefined),15%
CC(=O)c1cccc(OCC(=O)NC2CCCCCC2)c1,2%
Cc1ccc(C)c(C(=O)NCc2ccncc2)c1,13%
COc1ccc(-c2cc(C(=O)Nc3cccnc3)c3ccccc3n2)cc1OC,7%
CC(C)(C)N1CC(c2nc3ccccc3n2Cc2ccccc2)CC1=O (centres undefined),-11%
COc1cc(C(=O)N2CCN(c3ccc(C)cc3C)CC2)cc(OC)c1OC,-4%
COCCNC(=O)CC(NS(=O)(=O)c1ccc(NC(C)=O)cc1)C(C)C (centres undefined),-5%
COCCN1CCC(CNCc2cn[nH]c2-c2ccc(C)c(C)c2)C1 (centres undefined),3%
O=C(NCCc1ccc(Cl)cc1)c1ccc2nccnc2c1,-20%
COC(=O)Cn1c2ccccc2c2nc(=O)cc(C)n21,-21%
COc1ccc(Nc2cc(C(=O)NCCc3ccccc3)c3ccccc3n2)cc1OC,-9%
COc1ccc(C2c3c(noc3C)CC(C)(O)C2C(C)=O)cc1 (centres undefined),-6%
c1nc(N2CCOCC2)c2c3c(sc2n1)CCCC3,-6%
C[C@H](CO)N1C[C@H](C)[C@H](CN(C)C(=O)Nc2ccc(F)cc2)Oc2ccc(NC(=O)NC3CCCCC3)cc2CC1=O,7%
Cc1cccc(C(=O)NCC(=O)NCC(c2ccco2)N2CCCCC2)c1 (centres undefined),-10%
COc1cc(/C=C(\C#N)C(=O)NCC2CCCO2)ccc1O (centres undefined),-15%&-7%
Cc1ccc(CN2C(=O)N(c3ccc(C)c(Cl)c3)S(=O)(=O)c3ccccc32)cc1,18%
Cc1ccc(C(=O)Nc2ccc(S(=O)(=O)N3CCOCC3)cc2)cc1Br,13%
CN(C)c1ccc(/C=C2\SC(N3CCCCC3)=NC2=O)cc1,13%
CCN(CC(=O)NCc1ccc(Cl)cc1)C(=O)c1cc(S(=O)(=O)N2CCOCC2)ccc1C,-5%
CCOc1cc(/C=C(/C#N)c2nc3ccccc3[nH]2)ccc1Oc1ccc([N+](=O)[O-])cn1,13%
CC(C)CCC1(CCNC(C)c2cccs2)CCOC(C)(C)C1 (centres undefined),-18%
O=c1c2sccc2n(Cc2cc(=O)n3ccccc3n2)c(=O)n1-c1cc(F)ccc1F,0%
O=C1CC2(CCCC2)Oc2ccc(F)cc21,-11%
O=C(NCc1ccc(Cl)cc1)c1ccc(COCC(F)(F)F)o1,?
CC(CNC(=O)Cn1ccc(NC(=O)OCc2ccccc2)nc1=O)c1ccccc1 (centres undefined),1%
COc1cccc(C2/C(=C(/O)c3ccc(F)cc3)C(=O)C(=O)N2CCN(C)C)c1 (centres undefined),-10%
COc1cccc(-c2nn3c(-c4cc(C)[nH]n4)nnc3s2)c1,2%&-17%
CCCCCC=CCC=CCCCCCCCC(=O)OCC,0%
COc1cc(NS(=O)(=O)c2ccc(C(=O)O)cc2)c2nc(C)ccc2c1,5%
CC1=Nc2ccc(C)cc2N(Cc2ccccc2)C(=O)C1,2%
CN(C)CCN(Cc1ccco1)c1ccccn1,15%
CCN(CC)CCN=CC1=C(O)CNC1=O,20%
O=C(NCCCc1ccccc1)C1CCN(C(=O)N2CCOc3ccc(Cl)cc32)CC1,-7%
CC1(C)CC(=O)/C(=C(\O)CCCN2C(=O)c3ccccc3C2=O)C(=NCC(=O)O)C1,1%
COC(=O)CN(c1ccc(F)cc1)S(=O)(=O)c1ccccc1,3%
Cc1ccc(S(=O)(=O)/N=C2/NC(=O)/C(=C\c3ccccc3)S2)cc1,79µM*
CCCCc1ccc(NC(=O)c2cc(-c3ccc(C)c(F)c3)on2)cc1,3%
N#CCCn1nc(-c2ccccc2)cc1Nc1ccccc1NC(=O)c1cccs1,-9%
Cc1ccc(-c2noc(C3CCCN(C(=O)C4CCCCC4)C3)n2)o1 (centres undefined),8%
O=C(c1cccnc1Nc1ccccc1F)N1CCOCC1,10%
COc1ccccc1CNC(=O)c1cc(-c2cccnc2)nc2ccccc12,7%
CCCOC(=O)c1ccc(NC(=O)COC(=O)C2CCN(c3ccc(C(F)(F)F)cn3)CC2)cc1,17%
OCC1(Cc2ccccc2)CCCN(Cc2ccn[nH]2)C1 (centres undefined),-19%
CCOC(=O)C1CCCN(C(=O)c2csc(-c3ccc4c(c3)CCO4)n2)C1 (centres undefined),-12%
Cc1ccc(OCCC(=O)OCC(=O)NC(=O)NC2CCCC2)cc1,-17%
CCCCCCCC1(C)NC(=O)NC1=O (centres undefined),6%

# The results go on:
SMILES,VDR inhibitor
COc1cc(OC)c(N(C)C(=O)c2cn(C3CCCC3)c(=O)c3c2c2ccccc2n3C)cc1Cl,6%
CCOC(=O)C1Cc2ccccc2C(=O)O1 (centres undefined),?
Cc1cccc(C)c1-n1c(C)cc(/C=N/NC(=O)CSc2ncccn2)c1C,1%
CNC(=O)COC(=O)c1cc2c(s1)CCCC2,-17%
CN(C1CCCCC1)S(=O)(=O)c1ccc2c(c1)c(=O)c(C(=O)NCCc1ccccc1)cn2C,-4%
CCOc1ccc(NC(=O)CN(C)C(=O)c2ccc(-c3ccc(C(C)=O)cc3)o2)cc1OCC,11%
CC(C)(C)c1c(Cl)c(O)c(-c2ccccc2)c(=O)n1-c1ccccc1,12%
Cc1ccc(CNC(=O)CN2C(=O)CSc3ccc(S(=O)(=O)N4CCC(C)CC4)cc32)cc1,3%
O=C(COc1ccc(-c2nnco2)cc1)NCc1ccccc1Cl,-27%
O=C(NCCc1ccc(Cl)cc1)c1cc(-c2ccncc2)nc2ccccc12,-4%

# Some of the entries above in a different format.
> Cc1cccc(C)c1-n1c(C)cc(/C=N/NC(=O)CSc2ncccn2)c1C
  VDR inhibitor: 1%
> CNC(=O)COC(=O)c1cc2c(s1)CCCC2
  VDR inhibitor: -17%
> CN(C1CCCCC1)S(=O)(=O)c1ccc2c(c1)c(=O)c(C(=O)NCCc1ccccc1)cn2C
  VDR inhibitor: -4%
> CCOc1ccc(NC(=O)CN(C)C(=O)c2ccc(-c3ccc(C(C)=O)cc3)o2)cc1OCC
  VDR inhibitor: 11%

# More entries follow:
SMILES,VDR inhibitor
O=C1CC(=C2c3ccccc3-c3ccccc32)C(=O)N1CCCCN1CCN(c2ccccc2)CC1,1%
Cc1nc(S(=O)(=O)NC2CCCCC2)c(C#N)c(C)c1Cl,?
COc1cccc(CNC(=O)CCC2CCCN(C(=O)c3ccc(OC)c(F)c3)C2)c1 (centres undefined),-5%
O=[N+]([O-])c1ccc(Cl)cc1Sc1nc2ccccc2o1,-1%
Cc1cc(C)n(-c2ccc(C(=O)OCC(=O)Nc3ccc(S(=O)(=O)N4CCCCC4)cc3)cc2)n1,-4%
Cc1ccc2c(c1)c1c(c(=O)n(Cc3ccccc3)c(=O)n1Cc1cccc(F)c1)n2C,-10%
Cc1cc(=O)oc(C)c1C(=O)NCc1ccccn1,-15%
Cc1nnc(SCC2=C(C(=O)O)N3C(=O)C(NC(=O)c4cc(F)c(F)cc4Cl)C3SC2)s1 (centres undefined),-4%
COc1ccc(-c2coc3cc(O)ccc3c2=O)cc1O,5%
Cc1cc(C)c2cc(C#N)c(N3CCCN(S(=O)(=O)c4ccccc4)CC3)nc2c1,13%
CCOC(=O)c1csc(NC(=O)c2cc3ccccc3o2)n1,-5%
Cc1cc(C)c(/C=C/c2onc(C)c2S(=O)(=O)N2CCC(C(=O)NCc3ccco3)CC2)c(C)c1,0%
COc1ccc(N2CCN(C(=O)Cn3cnc4sc(C)c(S(=O)(=O)N5CCC(C)CC5)c4c3=O)CC2)cc1,-16%
COc1ccc(Cl)cc1C(=O)Nc1cc(=O)n(C)c(=O)n1C,-6%
CN(C(=O)Cc1csc(-c2ccccc2)n1)c1c(N)n(Cc2ccccc2)c(=O)[nH]c1=O,-15%
Cc1cc(C(=O)COC(=O)c2ccc(O)cc2)c(C)n1-c1ccccc1F,-1%
Cc1ccc2sc(N(CCCN(C)C)C(=O)CCS(=O)(=O)c3ccccc3)nc2c1C,-20%
CCCCn1c(=N)c(S(=O)(=O)c2ccc(Br)cc2)cc2c(=O)n3cccc(C)c3nc21,4%
CC(=O)c1ccc(NC(=O)C(C)n2nc(-c3ccccc3)ccc2=O)cc1 (centres undefined),-5%
NC(=O)CSc1nnc(NC(=O)c2ccc(Br)o2)s1,-24%
CC(C)C(NC(=O)c1ccccc1)C(=O)N1CCCCCC1 (centres undefined),10%
Cc1cccc(NC(=O)c2ccc3c(c2)OCCO3)c1,-10%
CCOC(=O)c1sc2nc(C)nc(Nc3ccc(OC)cc3)c2c1C,6%
COc1ccc(-n2c(=O)c(C)nc3cnc(Oc4ccccc4)nc32)cc1,3%
O=C(O)c1cccc(-n2cc(-c3cccc(C(F)(F)F)c3)cn2)c1,2%
O=C(c1ccccc1)N1CCC(O)(c2cccnc2)CC1,10%
O=C(Oc1cc(=O)oc2c1c(=O)n1c3c(cccc23)CC1)c1ccccc1,13%
N=c1sccn1CC(=O)NCc1ccc(Cl)cc1Cl,-1%
Cc1cccc(-c2cc(C(=O)Nc3cccnc3)c3ccccc3n2)c1,17%
O=C(CSc1nc2c([nH]c3ccccc32)c(=O)n1-c1ccc(Cl)cc1)c1ccccc1,-3%
COc1ccccc1NC(=O)Nc1ccnn1C1CCN(C(=O)c2cccnc2)CC1,1%
O=C(Cn1ncc2c([nH]c3ccccc32)c1=O)Nc1ccc(F)cc1F,-10%
Cc1ccc(NC(=O)C2SC(=Nc3ccccc3)C(C(=O)Nc3ccc(Cl)cc3)=C2N)cc1 (centres undefined),4%
Cc1ccc(CN2CCC(C(=O)Nc3cccc(-c4cccc(F)c4)c3)CC2)o1,-12%
O=C(O)c1cn(-c2ccc(N3CCCC3)c(F)c2)c2c(F)c(F)c(F)cc2c1=O,21%
COc1ccc(CNc2nc(NCc3ccc(OC)cc3)n(C(=O)c3ccncc3)n2)cc1,6%
COc1ccc(NC(=O)CN2CCCN(Cc3ccc(Cl)cc3)S2(=O)=O)cc1Cl,3%
COc1ccc(CCNS(=O)(=O)c2ccc([N+](=O)[O-])cc2)cc1OC,-21%
CCn1c(=O)cc(SCC(=O)N2CCCCC2)c2ccccc21,5%
Cc1cc(C(=O)Nn2c(C)nc3ccccc3c2=O)ccc1[N+](=O)[O-],3%
CC1CCc2c(sc(NC(=O)Cc3ccccc3)c2C(=O)Nc2ccc(Cl)cc2)C1 (centres undefined),-3%
N#Cc1nc(-c2ccco2)oc1NCc1cccnc1,17%
COc1ccc(N2CCN(S(=O)(=O)c3ccc(-c4cc(C)no4)s3)CC2)cc1,-24%

# VDR inhibitor: what is marked active above
SMILES,VDR inhibitor
Cc1ccc(S(=O)(=O)/N=C2/NC(=O)/C(=C\c3ccccc3)S2)cc1,79µM*
